ClpP mod – qHTS Assay for Activators of ClpP | Potency, µM (series often up to 57.5 µM), for inactives: at the top dose activity change, negative = active | 340,000 tested, 1.9% active | ATP-dependent Clp protease proteolytic subunit (Bacillus subtilis (strain 168)), P80244 | purified B. subtilis ClpP, FRET peptide cleavage, 20 min; active = well fitted falling curve with a large enough effect; inconclusive = small, poorly fitted or top-dose-only effect; inactive = no such curve, though single readings can be large or run the other way; note: potency is the fitted concentration of half-maximal effect; the source files actives as falling curves though it sought activators and does not explain the sign; nearly all actives have a fitted effect of over 65% in size; many hits overshoot -100%
Target sequence (P80244 whole entry, looked up): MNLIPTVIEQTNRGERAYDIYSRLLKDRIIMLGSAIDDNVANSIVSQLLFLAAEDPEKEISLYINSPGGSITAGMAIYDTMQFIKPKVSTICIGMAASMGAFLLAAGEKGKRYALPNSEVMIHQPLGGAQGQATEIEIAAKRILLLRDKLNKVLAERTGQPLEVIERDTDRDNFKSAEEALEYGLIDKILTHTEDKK
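FRET quenching reversal measured ClpP activation: 10 microg/mL B. subtilis ClpP at pH 8 with the FRET-FV decapeptide, read at 430 nm after 320 nm excitation. The 20-min minus 0-min signal was scaled between DMSO/no-enzyme wells and ADEP (5.8 microM final).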
TRPML1 blocker – inhibitors of human TRPML1 channel | TRPML1-inducible cells, Ca2+ dye fluorescence, FDSS; stronger effect = lower value; inhibition of EC80 agonist-evoked calcium signal | activity change, negative = inhibition, % (no concentration beside the values) | 390,000 tested, 0.02% active; in the data active means activity change below about -50%; inconclusive means about -30% to -50%; inactive means above about -30%;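 note: stimulus is agonist 54-4 at its EC80 concentration; % is set by controls: 0 for no effect and ±100 for the full control effect; compound concentration not given in the record; the text of the record puts the active cut at -80%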
Target sequence (Q9GZU1 whole entry, looked up): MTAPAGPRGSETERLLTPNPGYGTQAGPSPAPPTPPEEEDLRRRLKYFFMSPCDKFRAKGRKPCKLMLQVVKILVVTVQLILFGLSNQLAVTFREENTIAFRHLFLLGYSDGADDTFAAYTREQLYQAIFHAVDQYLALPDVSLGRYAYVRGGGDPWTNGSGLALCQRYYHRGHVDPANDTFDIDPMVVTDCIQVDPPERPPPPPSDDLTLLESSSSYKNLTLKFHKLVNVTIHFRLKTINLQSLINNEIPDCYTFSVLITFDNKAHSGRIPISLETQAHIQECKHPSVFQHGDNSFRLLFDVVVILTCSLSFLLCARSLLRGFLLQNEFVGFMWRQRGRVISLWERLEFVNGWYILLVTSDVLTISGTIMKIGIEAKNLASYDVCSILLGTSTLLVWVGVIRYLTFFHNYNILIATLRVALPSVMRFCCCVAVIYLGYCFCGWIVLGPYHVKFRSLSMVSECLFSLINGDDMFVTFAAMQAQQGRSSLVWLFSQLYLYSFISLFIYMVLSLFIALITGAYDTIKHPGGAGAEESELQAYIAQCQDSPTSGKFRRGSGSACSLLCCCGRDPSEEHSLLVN
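Calcium fluorescence in TRPML1-DL cells induced overnight with Tet: a 110 s read after compound pin addition, then a 110 s antagonist read after challenge with 54-4 at 4 uM final (EC80).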
An asterisk follows results filed as active.

CCCCC(=O)OC1=C(C(=O)c2ccccc2)N(C)S(=O)(=O)c2ccccc21 was read as ClpP mod -0.1% and TRPML1 blocker 93.
Screening Cc1cccc(C(=O)Nc2ccc3nc(SCC(=O)N4CCCC4)sc3c2)c1 returned ClpP mod -8.6% and TRPML1 blocker 3.
CNc1nc(NCc2cccc(OC)c2)c2sccc2n1 was read as ClpP mod -25% and TRPML1 blocker 36.
Screening Cc1ccc(Cl)cc1N1CCN(C(=O)CCCn2c(=O)[nH]c3ccc(Br)cc3c2=O)CC1 returned ClpP mod -5.1% and TRPML1 blocker 16.
Screening CC(C)NC(=O)C1(C)CCCCCN1C(=O)c1ccc(-c2ccccc2)cc1 (stereo not drawn) returned ClpP mod -0.6% and TRPML1 blocker 17.
For Cn1ccc2cc(S(=O)(=O)N3CCCN(C(=O)Nc4ccccc4Br)CC3)ccc21 the results were ClpP mod -14% and TRPML1 blocker -7.
COc1ccc2oc(=O)c(-c3nnc(-c4ccc(C)cc4)o3)cc2c1 was read as ClpP mod -14% and TRPML1 blocker -7.
Screening CCOc1ccc(S(=O)(=O)Nc2cccc(-c3ccc(N4CCC(C)CC4)nn3)c2)cc1 returned ClpP mod -6.0% and TRPML1 blocker 9.
Screening Cc1ccc(N2CC(c3nnc(Cc4ccc(F)cc4)o3)CC2=O)cc1 (stereo not drawn) returned ClpP mod -0.4% and TRPML1 blocker 5.
Screening Cc1ccc(-c2ccc(=O)n(CC(=O)Nc3cccc(C#N)c3)n2)cc1 returned ClpP mod -24% and TRPML1 blocker -15.
COc1ccc(CNC(=O)CCC2N=C3c4ccccc4N=C(SCc4cccc(F)c4)N3C2=O)cc1 (stereo not drawn) was read as ClpP mod 4.2% and TRPML1 blocker -23.
For Cc1cc(SCC(=O)Nc2ccc(C(F)(F)F)cc2)nc(=O)[nH]1 the results were ClpP mod -0.3% and TRPML1 blocker -22.
`COc1ccc(-c2cc3nc(C)c(CCC(=O)Nc4cccc(C(F)(F)F)c4)c(C)n3n2)c(OC)c1` gave ClpP mod 1.8% and TRPML1 blocker -17.
CC(C)Oc1ccc(-c2nc3c(C#N)c[nH]n3c2NC2CCCCC2)cc1 was read as ClpP mod 1.6% and TRPML1 blocker 65.
`CCn1c(=O)cc(OCC(=O)Nc2ccccc2Cl)c2ccccc21` gave ClpP mod -2.3% and TRPML1 blocker 2.
Screening COc1ccc(Br)cc1CNC(=O)C1CCN(c2nnc(-n3cccc3CNc3ccc(C)cc3)s2)CC1 returned ClpP mod -2.6% and TRPML1 blocker 1.
For CCC(=O)N1CCc2cc(S(=O)(=O)NC(Cc3ccccc3)C(=O)NCc3ccc(F)cc3)ccc21 (stereo not drawn) the results were ClpP mod -1.4% and TRPML1 blocker -6.
`COc1ccc(-c2c3c(=O)n(C)c(=O)n(C)c3c3c(-c4ccc(C)cc4)nc4ccccc4n23)cc1` gave ClpP mod -0.9% and TRPML1 blocker 9.
Screening COC(=O)c1sccc1S(=O)(=O)N(CC(=O)NCc1ccc(C)cc1)c1ccccc1 returned ClpP mod 1.6% and TRPML1 blocker 2.
`CN(C)c1ccc(-c2ccnc3c2CC(C)(C(=O)Nc2ccc4c(c2)OCO4)O3)cc1` (stereo not drawn) gave ClpP mod 4.5% and TRPML1 blocker 16.
Screening Cc1cccc(C)c1NC(=O)CSc1nccn1C returned ClpP mod -1.3% and TRPML1 blocker 37.
Screening Cc1cc(=O)n(CC(=O)NCc2ccc(OC(C)C)cc2)c2c1c(C)nn2-c1cccc(F)c1 returned ClpP mod -4.3% and TRPML1 blocker 17.
`O=C(CN1CCCN(Cc2ccc(Cl)cc2)S1(=O)=O)Nc1ccccc1F` gave ClpP mod -2.0% and TRPML1 blocker 9.
CCc1ccc(NC(=O)C2CCN(c3nn4cc(-c5ccc(OC)cc5)nc4s3)CC2)cc1 was read as ClpP mod 0.4% and TRPML1 blocker 5.
For Cc1ccc(CCNC(=O)Cn2nc(C)c3c(C)n(-c4ccc(C)cc4)nc3c2=O)cc1 the results were ClpP mod -7.6% and TRPML1 blocker 16.
For COc1ccc(CC(=O)NCc2ccc3c(c2)CCN3C(=O)c2cccc(C)c2)cc1 the results were ClpP mod -20% and TRPML1 blocker -5.
Screening COc1ccc(-n2cc(C(=O)N(C)c3cc(C)ccc3OC)c3ccccc3c2=O)cc1 returned ClpP mod -9.1% and TRPML1 blocker 9.
Screening CCn1ccc2cc(S(=O)(=O)N3CCCN(C(=O)NCCOC)CC3)ccc21 returned ClpP mod -0.1% and TRPML1 blocker 9.
For CCc1nc2ccc(C(=O)Nc3cccc(NS(C)(=O)=O)c3)cn2c1N(CC)Cc1cccc(Br)c1 the results were ClpP mod 0.9% and TRPML1 blocker -4.
For O=C(NCc1ccc(F)cc1Cl)c1cc(=O)[nH]c2ccc(S(=O)(=O)N3CCCCC3)cc12 the results were ClpP mod -4.4% and TRPML1 blocker -15.

Fetched by structure from above:
CCCCC(=O)OC1=C(C(=O)c2ccccc2)N(C)S(=O)(=O)c2ccccc21 was read as ClpP mod -0.1% and TRPML1 blocker 93.
For COc1ccc(CC(=O)NCc2ccc3c(c2)CCN3C(=O)c2cccc(C)c2)cc1 the results were ClpP mod -20% and TRPML1 blocker -5.

The listing continues:
Cc1cc(-c2ccc(C)c(S(=O)(=O)Nc3cccc(C)n3)c2)on1 was read as ClpP mod 32µM* and TRPML1 blocker -22.
For COc1cc(C(=O)N(CCCN(C)C)c2nc3c(OC)cccc3s2)cc(OC)c1OC the results were ClpP mod 1.2% and TRPML1 blocker -6.
`Cc1ccc(CNC(=O)CN2CCCN(Cc3ccc(F)cc3)S2(=O)=O)cc1` gave ClpP mod 1.7% and TRPML1 blocker -6.
`Cc1cc(C)c2c(CC(=O)Nc3nnc(C(C)C)s3)coc2c1` gave ClpP mod 0.2% and TRPML1 blocker 19.
Screening CC(C)(C)C1CCc2c(sc(NC(=O)c3ccc(Cl)cc3)c2C(=O)NCc2ccco2)C1 (stereo not drawn) returned ClpP mod 2.3% and TRPML1 blocker -2.
`CCOc1ccccc1NC(=O)C(C)n1nnc2sc3c(c2c1=O)CCCC3` (stereo not drawn) gave ClpP mod 1.8% and TRPML1 blocker -6.
C=Cc1ccc(CSc2nc(-c3ccccc3Cl)nc3c2Cc2c(CO)cnc(C)c2O3)cc1 was read as ClpP mod 0.4% and TRPML1 blocker -10.
Screening COc1ccc(-c2cc(C(=O)Nc3cccc(C(C)=O)c3)no2)cc1OC returned ClpP mod -3.4% and TRPML1 blocker 6.
For Cc1ccccc1-n1nc(CO)c(C(=O)NCc2cccnc2)n1 the results were ClpP mod -5.2% and TRPML1 blocker 6.
For Fc1ccc(Nc2ncnc3onc(-c4ccc(Cl)cc4)c23)cc1Cl the results were ClpP mod inconclusive and TRPML1 blocker 70.
Screening Cc1cccc(NS(=O)(=O)c2ccc3c(c2)CCN3C(=O)C2CCC2)c1 returned ClpP mod -0.2% and TRPML1 blocker 17.
`CCc1ccc(NC(=O)C2CCC(CNS(=O)(=O)c3cccs3)CC2)cc1` (stereo not drawn) gave ClpP mod -7.1% and TRPML1 blocker -7.
For CC(=O)Nc1cccc(-c2nnc(SCC(=O)c3cc([N+](=O)[O-])ccc3Br)o2)c1 the results were ClpP mod 0.6% and TRPML1 blocker -4.
`CCOc1ccc(NC(=O)CN2CCN(Cc3ccccc3)S2(=O)=O)cc1` gave ClpP mod -3.0% and TRPML1 blocker -26.
O=C(NCc1ccc(F)cc1)c1ccc2c(Cl)c3c(nc2c1)CCCC3 was read as ClpP mod -5.6% and TRPML1 blocker -14.
For Cc1ccc(-n2nnnc2CNC(=O)c2ccccc2C)cc1C the results were ClpP mod 0.0% and TRPML1 blocker 4.
For CC1Cc2cc(S(=O)(=O)NCc3ccc(F)cc3)ccc2N1C(=O)C1CCC1 (stereo not drawn) the results were ClpP mod 0.4% and TRPML1 blocker 13.
For Cn1ccc2c(N3CCOCC3)cc3c(c21)C1CCC3C1 (stereo not drawn) the results were ClpP mod -2.6% and TRPML1 blocker -3.
For Cc1ccc2nc(-c3ccc(Cl)cc3)cc(C(=O)OCC(=O)c3ccccc3)c2c1 the results were ClpP mod -2.5% and TRPML1 blocker -8.
`CN1CC(=O)N(CC(=O)Nc2ccc(OC(F)(F)F)cc2)c2ccccc2C1=O` gave ClpP mod 0.1% and TRPML1 blocker -30.
For Cc1cc(NC(=O)Nc2nnc(N3CCCCC3)s2)ccc1Br the results were ClpP mod -0.1% and TRPML1 blocker 23.
For CC(NC(=O)Cn1ccc2cc(S(=O)(=O)N3CCCCCC3)ccc21)c1ccccc1 (stereo not drawn) the results were ClpP mod -4.0% and TRPML1 blocker -1.
Screening COc1ccc(NC(=O)Nc2nnc(N3CCCCCC3)s2)cc1 returned ClpP mod 1.9% and TRPML1 blocker 16.
For CC1CCN(C(=O)c2cc3c(=O)n(C)c4cc(Cl)ccc4c3s2)CC1 the results were ClpP mod -1.8% and TRPML1 blocker -7.
O=C(c1ccc(C(F)(F)F)cc1)N1CCC(c2nc(-c3ccc(S(=O)(=O)N4CCCC4)cc3)no2)CC1 was read as ClpP mod 0.3% and TRPML1 blocker 9.
`CCc1ccc2ncc3c(-c4ccc(C)cc4)nn(CC(=O)Nc4ccc(C)cc4)c3c2c1` gave ClpP mod -7.9% and TRPML1 blocker 28.
Clc1cccc(N2CCN(c3nc4ccccc4n4nnnc34)CC2)c1 was read as ClpP mod -4.3% and TRPML1 blocker 12.
Screening Cc1ccc(-c2nc3ccccc3[nH]2)cc1NC(=O)COc1ccc(Cl)cc1Cl returned ClpP mod 1.6% and TRPML1 blocker 35.
O=S(=O)(Nc1cccc(-c2ccc(N3CCCCC3)nn2)c1)c1cccc(F)c1 was read as ClpP mod -4.7% and TRPML1 blocker -6.
O=C(CCCCCn1c(=O)c2sccc2n(CC(=O)Nc2cc(C(F)(F)F)ccc2Cl)c1=O)NCc1ccccc1Cl was read as ClpP mod inconclusive and TRPML1 blocker -1.

The closing 6 entries of the part above are carried over, then new ones follow.
O=C(c1ccc(C(F)(F)F)cc1)N1CCC(c2nc(-c3ccc(S(=O)(=O)N4CCCC4)cc3)no2)CC1 was read as ClpP mod 0.3% and TRPML1 blocker 9.
`CCc1ccc2ncc3c(-c4ccc(C)cc4)nn(CC(=O)Nc4ccc(C)cc4)c3c2c1` gave ClpP mod -7.9% and TRPML1 blocker 28.
Clc1cccc(N2CCN(c3nc4ccccc4n4nnnc34)CC2)c1 was read as ClpP mod -4.3% and TRPML1 blocker 12.
Screening Cc1ccc(-c2nc3ccccc3[nH]2)cc1NC(=O)COc1ccc(Cl)cc1Cl returned ClpP mod 1.6% and TRPML1 blocker 35.
O=S(=O)(Nc1cccc(-c2ccc(N3CCCCC3)nn2)c1)c1cccc(F)c1 was read as ClpP mod -4.7% and TRPML1 blocker -6.
O=C(CCCCCn1c(=O)c2sccc2n(CC(=O)Nc2cc(C(F)(F)F)ccc2Cl)c1=O)NCc1ccccc1Cl was read as ClpP mod inconclusive and TRPML1 blocker -1.
Screening Cc1cccc2c1-c1sc(C(=O)NCCc3ccc(Cl)cc3)cc1CO2 returned ClpP mod 4.1% and TRPML1 blocker -4.
For COC(=O)c1ccc(OCC2c3cc(OC)c(OC)cc3CCN2C(=O)Cc2ccccc2)cc1 (stereo not drawn) the results were ClpP mod -2.6% and TRPML1 blocker 39.
Cc1ccccc1-c1nc2cc(NC(=O)COc3ccc(F)cc3)ccc2o1 was read as ClpP mod 4.5% and TRPML1 blocker 16.
CC(C)Oc1ccc(CNC(=O)c2ccc3nc(C(C)C)oc3c2)cc1 was read as ClpP mod -1.6% and TRPML1 blocker 5.
For Cc1ccc(Cl)cc1NC(=O)CSc1nc2ccccc2nc1Cc1ccccc1 the results were ClpP mod -0.3% and TRPML1 blocker 6.
`Cc1nc2nc(C)c(CCC(=O)NCCc3ccccc3)c(C)n2n1` gave ClpP mod -1.5% and TRPML1 blocker 34.
`CCOc1ccccc1NC(=O)Cn1nc(N2CCN(c3ccccc3)CC2)ccc1=O` gave ClpP mod 0.2% and TRPML1 blocker -3.
Screening Cc1ccc2nc(SC(Cc3cc(Cl)ccc3Cl)C(=O)O)[nH]c2c1 (stereo not drawn) returned ClpP mod 0.9% and TRPML1 blocker -13.
CC1CCc2c(sc(NC(=O)c3cc(-c4cccc(Cl)c4)on3)c2C(N)=O)C1 (stereo not drawn) was read as ClpP mod 0.2% and TRPML1 blocker -15.
For CCC(=O)OCc1cnc(C)c2oc(=O)c(C(=O)Nc3ccc(CC)cc3)cc12 the results were ClpP mod 1.0% and TRPML1 blocker -3.
CCCc1cnc2c(c1SCC(=O)Nc1cccc(C)c1C)c(=O)n(C)c(=O)n2C was read as ClpP mod 0.1% and TRPML1 blocker 11.
For Cc1ccc(CCNC(=O)Cn2ncc3c([nH]c4ccc(C)cc43)c2=O)cc1 the results were ClpP mod -21% and TRPML1 blocker inconclusive.
For Cc1nn(C(=O)c2ccccc2F)c(C)c1S(=O)(=O)N1CCCCCC1 the results were ClpP mod 0.5% and TRPML1 blocker -6.
O=C(NC1CC(=O)N(c2ccccc2)C1)c1cccs1 (stereo not drawn) was read as ClpP mod 1.9% and TRPML1 blocker 3.
`COC(=O)c1cccc(-n2c(CCC(=O)O)ccc2-c2ccc(OC)cc2)c1` gave ClpP mod -1.6% and TRPML1 blocker -1.
Screening CCOc1cc(C2C(C(=O)OC)=C(C)NC3=C2C(=O)c2ccccc23)c(Br)cc1OC (stereo not drawn) returned ClpP mod 0.4% and TRPML1 blocker -6.

This is a subset; the hit share may differ from the screen's.
